Mtb hypoxia rep: PubChem AID 1159583; M. tuberculosis hypoxia-regulated fluorescent reporter, fluorescence; fluorescence inhibition, % (test concentration not listed); actives 0.1% (n = 300,000);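 active = 35 to 45% if threefold the growth effect, above 45% if 1.5-fold the growth effect; inactive = the rest, general growth blockers included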;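 note: wells of about 50 µL received 100 nL stock; 0% = vehicle wells and 100% = reference inhibitor wells; whole bacteria with a GFP reporter of the hypoxia response; strong numbers were not always called active; many hits fall short of the cut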
Sa RN4220 lethal: growth inhibition of S. aureus RN4220, primary screen, OD600; 16 h; inhibition, % (test concentration not listed); actives 0.33% (n = 330,000);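 active = z-score of -3 or lower and OD600 up to 0.18 on both plates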;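 note: plate controls were untreated cells for no effect and reference antibiotic for full effect; stock transfer was 100 nL into about 80 µL; one replicate is shown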
Autofluor counter: flagged as autofluorescent in microsphere protease counterscreen. compound autofluorescence counterscreen, microsphere flow cytometry; hits give high values. fluorescence intensity (no concentration beside the values). actives 3.1% (n = 360,000). AID 624483;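 active = at least 3 SD above the mean of all compounds, about 16000 in these data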;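 note: 100 nL of 1 mM stock went into each well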
Sa ugtP lethal: growth inhibition of ugtP-null S. aureus, primary screen, RN4220 ugtP deletion, OD600; actives 0.54% (n = 330,000); growth inhibition, % (concentration not given with the values); 16 h; some inactives read as strong as hits; AID 1259309, 2017;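 active = z-score under -3 and OD600 up to 0.15 on both plates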;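 note: plate controls were untreated wells for no effect and antibiotic for full effect; wells of about 80 µL received 100 nL stock; the first replicate is given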
BJeLR lethal: MLPCN primary cell-based screen for lethality selective to Ras in HRASV12 cells | BJeLR (HRASV12) viability, CellTiter-Glo ATP luminescence, 48 h; reference of the scale not given here | inhibition, % (concentration not given with the values) | actives 0.17% (n = 300,000);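 active = replicate mean above 50%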;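 note: 50 nL library stock added to about 25 µL; numbers are from one replicate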
PrP 5UTR inh: inhibition of PrP 5' UTR reporter expression | actives 0.35% (n = 340,000) | cell-based PrP 5' UTR mRNA reporter, plate reader | inhibition, % (test concentration not listed);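 active = every replicate at 50% or more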;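 note: 0 = median of the neutral control wells; tested in H4 reporter cells; numbers are from one replicate; inactives centre near -14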
Mtb hypoxia rep growth: recorded beside Mtb hypoxia rep, whose call it bears; growth inhibition, %; measured here: M. tuberculosis growth (absorbance);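 0% = vehicle and 100% = reference antibiotic; read after six days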
Numbers without * were called inactive; . = not tested or not shown. Random draw from the library; about 3.9% have a hit in one of these screens.

SMILES	Mtb hypoxia rep	Mtb hypoxia rep growth	Sa RN4220 lethal	Autofluor counter	Sa ugtP lethal	BJeLR lethal	PrP 5UTR inh
O=C(NC(NC(=S)Nc1ccc(Cl)cc1)C(Cl)(Cl)Cl)c1ccco1 (stereo unspecified)	.	.	.	2472	.	-6	-18
CCC(CC)C(=O)N1CCCC(c2nc(-c3cccs3)no2)C1 (stereo unspecified)	.	.	2.0	3316	3	4	-33
O=C(CSc1ncnc2nc[nH]c12)c1ccc(Cl)cc1	.	.	2.9	5706	-4	3	-14
O=C(CN1C(=O)C(=O)N(C2CCCC2)C1=O)Nc1ccccc1OC(F)F	22	6	5.5	2991	13	.	-13
CN(C)c1ccc(C(=O)N2CCCC(N3CCN(Cc4ccc5c(c4)OCO5)CC3)C2)cc1 (stereo unspecified)	12	-3	3.3	4586	10	-2	-4
O=C(CS(=O)(=O)c1cn(Cc2cccc(F)c2)c2ccccc12)N1CCOCC1	17	3	1.9	3894	-3	.	-11
CCOC(=O)N1CCN(C(=O)c2cccn3c(=O)c4c5c(sc4nc23)CCCC5)CC1	2	-1	4.4	2549	13	5	-13
O=C(COC(=O)CNC(=O)c1cccc([N+](=O)[O-])c1)Nc1ccccc1OC(F)F	-11	-3	-1.7	2161	1	-1	-21
CCN(C(=O)CN1CCN(c2ccccc2O)CC1)c1c(N)n(Cc2ccccc2)c(=O)[nH]c1=O	.	.	2.2	2176	-5	-1	-10
CCO[C@H]1OC(C(=O)NC2CC2)=C[C@@H](c2ccccc2)[C@@H]1CCCO	.	.	.	4095	.	11	-9
C=CCn1c(-c2ccc(F)cc2)n[nH]c1=S	8	8	-0.9	4256	2	6	-11
O=C(Cc1nnc(NC(=O)Nc2ccc(F)cc2)s1)Nc1ccccc1	4	2	-0.5	2312	-4	2	-18
Cc1cccc(N2C(=O)C(CC(=O)Nc3cccc(F)c3)N(CCc3ccncc3)C2=O)c1 (stereo unspecified)	2	1	3.0	2625	-1	7	8
CCN(CC)C(=O)c1[nH]cnc1C(=O)N[C@@H](CC(C)C)C(=O)OC(C)(C)C	.	.	.	3137	.	9	-10
NS(=O)(=O)c1cccnc1Nc1cccc(Cl)c1	.	.	-3.7	2799	-7	6	5
COc1ccc2cc(C(c3nnnn3CCc3ccccc3)N3CCC(O)CC3)c(=O)[nH]c2c1 (stereo unspecified)	.	.	2.3	38811*	6	.	-25
Cc1cccc(-n2nnc(C(=O)NCc3ccco3)c2N)c1	2	2	1.2	4652	0	-2	-14
COc1ccc(CC(=O)Nc2nc(C(C)(C)C)cs2)cc1	12	6	3.0	3289	13	-10	-15
Cc1c(C(=O)/C=C/N(C)C)nnn1-c1ccc(F)c(Cl)c1	6	9	4.2	4282	6	0	.
CC(C)C[C@H](NC(=O)CCn1nnc2ccccc2c1=O)C(=O)O	-2	-8	1.3	4803	7	-1	-16
COc1ccc(C)cc1NC(=O)c1c(C)nn(Cc2ccccc2)c1Cl	9	5	3.4	2556	7	-13	-1
CN1CCN(NC(=O)CN2C(=O)S/C(=C\c3c(Cl)cccc3Cl)C2=O)CC1	-3	8	4.1	3187	-1	-5	-8
O=[N+]([O-])c1cccc(-c2cc3cccc[n+]3cc2-c2cccc([N+](=O)[O-])c2)c1	18	5	0.2	2443	1	1	-11
O=C(CSc1nc2ccccc2c(=O)[nH]1)c1cccs1	.	.	-12	3295	-12	-5	-7
COc1ccc(-n2c(=O)c3c4c(sc3n(CC(=O)NCC3CCCO3)c2=O)CCCC4)c(OC)c1 (stereo unspecified)	-13	-6	0.9	4850	-4	4	-2

Next section:
SMILES	Mtb hypoxia rep	Mtb hypoxia rep growth	Sa RN4220 lethal	Autofluor counter	Sa ugtP lethal	BJeLR lethal	PrP 5UTR inh
COC(=O)C1=C(c2cc3ccccc3s2)CC2CCC1N2C(=O)N1CCCCC1 (stereo unspecified)	3	2	1.5	.	3	.	.
CCN(CC)C(=O)c1ccc(NC(=O)c2cn(-c3ccccc3)nc2-c2ccc(OC)cc2)cc1	-3	7	-3.3	5658	-1	-10	-11
COc1ccc(-c2cc(C(F)(F)F)nc(SCCC(=O)N3CCN4CCCC4C3)n2)cc1 (stereo unspecified)	.	.	5.9	3672	21	10	-1
CCOc1ccc(NC(=S)NCCCN2CCN(C3CCCCC3)CC2)cc1	4	0	1.4	8720	1	-2	-16
O=C(Nc1cccc2ccccc12)N(CCO)C1CCS(=O)(=O)C1 (stereo unspecified)	-6	-6	2.6	3148	2	-6	-8
Oc1ccc(N=Nc2ccccc2)cc1	7	0	3.9	3694	-7	1	-36
COc1ccc(N/C=C(\C#N)S(=O)(=O)c2ccc(Cl)cc2)c(OC)c1	4	2	5.8	4252	0	-1	-4
COc1ccccc1C1C(C(N)=O)=C(C)Nc2ncnn21 (stereo unspecified)	2	1	0.3	16247*	0	-1	-9
Cc1cccc2cc(C(c3nnnn3Cc3ccc4c(c3)OCO4)N3CCCC3)c(=O)[nH]c12 (stereo unspecified)	.	.	0.9	6840	0	4	-4
O=C(Nc1ccc2c(c1)OCO2)N1CCN(Cc2ccco2)CC1	10	0	6.5	2248	13	-2	-17
O=C(COC(=O)CCC1CCCC1)Nc1nc2c(F)c(F)c(F)cc2s1	0	-2	0.6	2284	-6	-4	-11
CC(=O)COC(=O)c1ccc2noc(-c3ccccc3)c2c1	10	-6	4.9	5080	-7	-5	-40
CCN1CCN(c2cc(C)c3cc(NC(=O)CCC(=O)Nc4ccc(OC)cc4OC)ccc3n2)CC1	4	0	4.8	2687	-3	8	-6
Cc1onc(-c2ccccc2)c1C(=O)N1CCN(c2ncccc2C(F)(F)F)CC1	-7	-11	5.8	4827	5	-9	-21
CCCn1nc(C(=O)N2CCCc3ccccc32)c2ccccc2c1=O	4	-1	4.2	4367	7	0	-10
COc1ccccc1[C@@H]1C(c2cccc(C)c2)=NN(c2ccc(Br)cc2)[C@H]1C(=O)N1CCOC1=O	5	1	-1.8	3626	1	.	-13
NS(=O)(=O)c1ccc(CCNC(=O)c2coc3ccccc3c2=O)cc1	13	6	1.7	3121	2	4	-23
OC1(CNCc2cn[nH]c2-c2cc3ccccc3o2)CCCCC1	-1	-1	0.6	4506	1	-4	-14
O=C1CNC(=O)/C(=C/c2cccs2)N1	4	4	4.7	4890	0	7	-30
O=c1c2cc([N+](=O)[O-])ccc2nc(CN2CCN(c3ccccn3)CC2)n1-c1ccccc1F	-3	4	2.0	4282	11	-1	-26
COc1cc(/C=N/NC(=O)c2cccc([N+](=O)[O-])c2)ccc1O	.	.	.	3287	.	0	23
CC(C)(C)c1ccc(C(=O)NCC(=O)N/N=C/c2cccs2)cc1	.	.	.	4293	.	-10	-43
COc1ccc2nc(/N=C/c3c(C)[nH]n(-c4ccc(C)cc4)c3=O)sc2c1	.	.	.	8912	.	25	-22
Cc1ccc(NC(=S)N2CCN(Cc3ccccc3)CC2)cc1	7	-5	7.1	4922	13	-1	-20
CCOC(=O)N1CCN(C(=O)CSc2ccc(-c3ccc(OC)c(OC)c3)nn2)CC1	12	3	5.7	4329	6	3	7

New compounds follow
SMILES	Mtb hypoxia rep	Mtb hypoxia rep growth	Sa RN4220 lethal	Autofluor counter	Sa ugtP lethal	BJeLR lethal	PrP 5UTR inh
O=C(CN(C(=O)CCC(=O)Nc1nccs1)c1cccc(C(F)(F)F)c1)NCC1CCCO1 (stereo unspecified)	-11	-5	1.2	3588	-2	-15	6
O=C(CSCc1ccc(Cl)cc1)N1CCOCC1	6	14	6.1	2526	9	-6	-16
CCn1c(CNc2ccccc2Cl)nnc1SCCN1CCCCC1	6	11	-0.1	10591	-1	-8	5
COc1ccc(CCNC(=O)CCNC(=O)c2ccc([N+](=O)[O-])cc2)cc1	-6	8	-0.6	3668	5	-2	-16
O=C(COC(=O)C1CCC1)Nc1ccccc1Sc1ccccc1	4	2	3.6	9879	3	9	-26
CN(C(=O)c1ccc(NC(=O)Cc2cccc(NC(=O)C3CCCN(C(=O)C4CCC4)C3)c2)cc1)C1CC1 (stereo unspecified)	0	2	2.3	2884	5	.	-15
COc1ccc(CCNC(=O)c2cnn3ccccc23)c(OC)c1OC	5	1	3.3	5820	9	5	-4
CCOc1ccccc1C(=O)NCC(=O)O	.	.	1.3	4194	1	1	3
c1ccc(-c2cc(-c3nnc4n3N=C(c3ccc5ccccc5c3)CS4)[nH]n2)cc1	-1	5	26	10548	57	-8	.
CN(C)C=Nc1nccc(-c2cccs2)n1	-14	9	1.0	.	-4	.	.
Cc1ccc(S(=O)(=O)N2CCN(c3ncnc4c3cnn4-c3ccccc3)CC2)cc1	6	1	2.9	3198	-4	5	-2
O=C(O)Cn1cc(C(=O)c2ccco2)c2ccccc21	7	9	2.9	3759	1	-6	-15
Cc1ccc(NC(=O)CSc2nc(=O)n(CCN(C)C)c3c2CCCC3)c(C)c1	-3	6	2.0	.	2	6	-18
Cc1cc([N+](=O)[O-])cc2c1-c1ncccc1C2=Nc1ccccc1	10	12	7.5	2655	3	5	-14
O=C(NN=C1CCCc2ccccc21)c1ccccc1Cl	7	9	4.2	.	16	.	.
COc1ccccc1N1CCN(CCCNC(=O)C2CCCN(c3ncnc4c3nc3n4CCCCC3)C2)CC1 (stereo unspecified)	0	12	1.9	5002	1	4	9
Cc1c(NC2=CC(=O)CC(C)(C)C2)c(=O)n(-c2ccccc2)n1C	9	-1	-1.3	4377	4	3	5
COc1cccc(CNCCSc2nnnn2C)c1OC	-7	-1	-4.4	22850*	-2	1	10
Cc1cc(C)n2nc(C(=O)OCC(=O)c3cc(C)n(CC4CCCO4)c3C)nc2n1 (stereo unspecified)	6	1	1.3	4111	7	-7	-6
CCOC(=O)c1cnn(-c2ccccc2)c1-n1cccc1	.	.	3.4	4476	10	-4	-12
Cc1cc(-c2ccc(C=Nn3cnnc3)o2)ccc1Cl	5	-1	-3.3	.	-8	.	.
COc1ccc(N(CC(=O)Nc2ccc(S(=O)(=O)N3CCOCC3)cc2)S(=O)(=O)c2ccccc2)cc1	.	.	-0.1	2699	2	-1	-12
Cc1ccc(-n2c(SCC(=O)N3CCC(C(=O)O)CC3)nc3ccccc3c2=O)cc1C	7	5	0.6	3462	-4	-3	-20
CCOc1ccccc1NC(=O)CSc1nc2[nH]ncc2c(=O)[nH]1	4	12	1.4	5021	4	1	-12
CC(Oc1ccc(F)cc1)C(=O)Nc1cc(S(=O)(=O)N2CCOCC2)ccc1N1CCCC1 (stereo unspecified)	7	0	5.7	4119	14	11	-3

The list continues.
SMILES	Mtb hypoxia rep	Mtb hypoxia rep growth	Sa RN4220 lethal	Autofluor counter	Sa ugtP lethal	BJeLR lethal	PrP 5UTR inh
C/C(=N\Nc1ccc(Cl)cc1)c1ccncc1	.	.	.	3326	.	-1	-34
O=C(COC(=O)Cc1ccsc1)Nc1ccc(F)cc1Cl	-17	-3	2.9	8596	1	.	-11
S=C(Nc1ccc(Cl)cc1)NC1CCCCC1	6	15	-4.0	3924	-1	-1	-61
COc1cc(N(C(=O)Cc2cccs2)C(C(=O)NC2CCCCC2)c2cccc(OC)c2OC)ccc1-n1cnnn1 (stereo unspecified)	-13	8	-2.9	2140	-10	-6	-21
CC(C)(C)N(Cc1ccccc1)C(=O)COC(=O)Cn1cnc2ccccc2c1=O	14	-2	3.7	3911	6	-2	-13
Cc1ccc2c(Cl)c(C(=O)NN=Cc3cccn3C)sc2c1	0	2	2.0	.	4	.	.
O=C(Oc1ccc(Br)cc1)c1cccnc1	11	8	2.0	3487	21	-12	-26
Cc1cc(C)nc(SCc2nnc(SCC(=O)Nc3ccc(Cl)c(C(F)(F)F)c3)o2)n1	3	-1	4.0	10748	9	-1	-14
CC(=O)c1cccc(NC(=O)CN(C2CCCCC2)S(C)(=O)=O)c1	2	-3	-0.4	4322	-1	14	-15

Full records, quoted from the list.
O=C(Oc1ccc(Br)cc1)c1cccnc1 is listed as Mtb hypoxia rep: 11; Mtb hypoxia rep growth: 8; Sa RN4220 lethal: 2.0; Autofluor counter: 3487; Sa ugtP lethal: 21; BJeLR lethal: -12; PrP 5UTR inh: -26
O=C(COC(=O)Cc1ccsc1)Nc1ccc(F)cc1Cl is listed as Mtb hypoxia rep: -17; Mtb hypoxia rep growth: -3; Sa RN4220 lethal: 2.9; Autofluor counter: 8596; Sa ugtP lethal: 1; BJeLR lethal: .; PrP 5UTR inh: -11
